Screens as filed in PubChem.
nsP2pro inh – Primary qHTS for inhibitors of NSP2Pro chikungunya virus (CHIKV) | hit rate 1.1% among 31,000 | FRET peptide cleavage, nsP2pro, fluorescence 1 h | Potency, µM (highest dose often 24.9 µM), for the others: at the top dose activity change, negative = inhibition, most hits filed as inhibitors; active means well fitted inhibition curve with a large enough effect; inconclusive means small, poorly fitted or top-dose-only effect; inactive means no such curve, though single readings can be large or run the other way; further: nearly all actives have a fitted effect of over 60% in size; a reference inhibitor and vehicle were the controls
Target sequence (Q8JUX6 whole entry, looked up): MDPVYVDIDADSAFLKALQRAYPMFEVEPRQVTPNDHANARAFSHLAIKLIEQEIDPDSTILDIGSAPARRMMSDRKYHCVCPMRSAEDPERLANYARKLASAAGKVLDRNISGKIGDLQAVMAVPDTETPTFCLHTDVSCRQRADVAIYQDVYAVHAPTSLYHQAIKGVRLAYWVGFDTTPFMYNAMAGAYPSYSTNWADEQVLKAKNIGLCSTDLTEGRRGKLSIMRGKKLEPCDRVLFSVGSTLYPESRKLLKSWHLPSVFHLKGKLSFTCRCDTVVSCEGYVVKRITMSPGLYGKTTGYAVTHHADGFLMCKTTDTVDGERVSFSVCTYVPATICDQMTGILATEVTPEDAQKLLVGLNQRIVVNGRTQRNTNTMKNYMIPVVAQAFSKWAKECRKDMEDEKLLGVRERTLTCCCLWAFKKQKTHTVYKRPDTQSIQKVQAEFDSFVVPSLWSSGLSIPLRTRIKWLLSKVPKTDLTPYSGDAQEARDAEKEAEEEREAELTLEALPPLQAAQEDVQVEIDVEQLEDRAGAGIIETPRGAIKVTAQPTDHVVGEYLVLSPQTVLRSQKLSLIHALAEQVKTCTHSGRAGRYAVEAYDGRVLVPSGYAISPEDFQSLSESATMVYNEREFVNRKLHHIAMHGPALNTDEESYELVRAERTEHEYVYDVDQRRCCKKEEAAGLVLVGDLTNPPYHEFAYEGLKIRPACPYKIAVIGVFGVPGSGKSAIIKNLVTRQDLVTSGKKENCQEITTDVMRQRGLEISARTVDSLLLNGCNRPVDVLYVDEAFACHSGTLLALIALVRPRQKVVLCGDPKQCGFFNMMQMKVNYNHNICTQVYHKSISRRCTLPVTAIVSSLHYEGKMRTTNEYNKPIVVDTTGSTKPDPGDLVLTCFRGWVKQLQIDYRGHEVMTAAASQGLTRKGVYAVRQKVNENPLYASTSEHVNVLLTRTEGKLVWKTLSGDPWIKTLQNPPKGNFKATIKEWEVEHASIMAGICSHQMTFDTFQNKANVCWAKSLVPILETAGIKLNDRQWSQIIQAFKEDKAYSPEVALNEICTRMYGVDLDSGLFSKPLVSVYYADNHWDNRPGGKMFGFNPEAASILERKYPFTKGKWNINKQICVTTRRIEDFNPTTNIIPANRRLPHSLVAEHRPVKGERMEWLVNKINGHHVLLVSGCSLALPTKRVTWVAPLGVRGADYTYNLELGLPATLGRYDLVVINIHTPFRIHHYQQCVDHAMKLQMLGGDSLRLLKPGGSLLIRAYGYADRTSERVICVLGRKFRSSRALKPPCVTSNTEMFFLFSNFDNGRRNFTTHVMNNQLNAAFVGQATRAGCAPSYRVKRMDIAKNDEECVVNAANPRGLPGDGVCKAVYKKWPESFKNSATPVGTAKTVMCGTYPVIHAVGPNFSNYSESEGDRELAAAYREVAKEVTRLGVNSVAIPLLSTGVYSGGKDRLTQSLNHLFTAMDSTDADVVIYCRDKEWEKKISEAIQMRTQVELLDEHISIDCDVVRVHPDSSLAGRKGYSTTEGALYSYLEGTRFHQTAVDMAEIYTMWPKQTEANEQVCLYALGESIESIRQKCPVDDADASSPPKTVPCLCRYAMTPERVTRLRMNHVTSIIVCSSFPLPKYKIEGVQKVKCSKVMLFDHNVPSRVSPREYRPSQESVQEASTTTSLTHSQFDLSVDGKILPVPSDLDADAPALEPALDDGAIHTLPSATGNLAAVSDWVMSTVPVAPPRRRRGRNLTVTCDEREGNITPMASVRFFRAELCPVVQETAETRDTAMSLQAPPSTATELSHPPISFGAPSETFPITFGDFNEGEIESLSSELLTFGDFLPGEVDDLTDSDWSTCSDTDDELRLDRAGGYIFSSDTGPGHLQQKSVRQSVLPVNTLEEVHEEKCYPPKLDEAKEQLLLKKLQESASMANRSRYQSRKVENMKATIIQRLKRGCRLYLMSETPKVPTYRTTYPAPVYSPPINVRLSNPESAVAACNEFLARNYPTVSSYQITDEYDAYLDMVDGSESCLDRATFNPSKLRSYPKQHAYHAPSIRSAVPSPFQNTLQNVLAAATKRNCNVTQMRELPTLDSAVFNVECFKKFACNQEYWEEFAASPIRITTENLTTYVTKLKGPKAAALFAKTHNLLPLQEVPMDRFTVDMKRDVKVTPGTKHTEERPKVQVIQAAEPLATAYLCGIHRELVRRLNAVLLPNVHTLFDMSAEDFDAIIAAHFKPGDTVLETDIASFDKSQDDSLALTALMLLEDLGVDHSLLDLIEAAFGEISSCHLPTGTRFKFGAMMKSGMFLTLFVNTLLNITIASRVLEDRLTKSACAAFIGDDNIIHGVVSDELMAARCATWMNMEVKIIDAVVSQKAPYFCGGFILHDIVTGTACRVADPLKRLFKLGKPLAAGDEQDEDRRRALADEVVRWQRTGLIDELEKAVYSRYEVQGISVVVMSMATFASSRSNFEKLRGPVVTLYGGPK
Active calls of the source: *; i = inactive; ? = inconclusive; & = joins results of further samples; [ ] = remark or other dose. On the % scale 0 is the no-effect control and ±100 the full control effect; potency means the concentration at half of the fitted maximal effect.

molecule	nsP2pro inh
Cc1noc(C)c1-c1ccc2ncnc(NCc3ccc(C(F)(F)F)o3)c2c1	-14.5%
CC(=O)Nc1ccc(S(=O)(=O)NCC2CCC(C(=O)NCCc3ccccc3)CC2)cc1 (centres undefined)	-25.5%
CC(O)C(CO)NC(=O)C1CSSCC(NC(=O)C(N)Cc2ccccc2)C(=O)NC(Cc2ccccc2)C(=O)NC(Cc2c[nH]c3ccccc23)C(=O)NC(CCCCN)C(=O)NC(C(C)O)C(=O)N1 (centres undefined)	72.4%[activator][10 µM]
COc1ccc(C(CN(C)C)C2(O)CCCCC2)cc1 (centres undefined)	1.0%
COc1ccccc1N1CCN(CCCCNC(=O)c2ccc(-c3cscn3)cc2)CC1	1.7%
CCN1CCC(N2CC(Oc3cccc(C(=O)NCC4CC4)c3)C2)CC1	-6.3%
CCNC(=O)c1cc2c(-c3cc(OCCN4CCCC4)c(Cl)cc3Cl)nc(N)nc2s1	?
COc1ccc(S(=O)(=O)N2CCc3c(C(=O)NCc4ccncc4)cccc32)cc1	i
COCCCn1c(=N)c(C(=O)NCC2CCCO2)cc2c(=O)n3cc(C)ccc3nc21 (centres undefined)	-17.7%
CCN(CC)C(=O)c1sc2c(c1C)c(=O)n(-c1ccc(OC)cc1OC)c(=O)n2CC(=O)c1ccc(Cl)cc1	-12.8%
CCc1nnc2c(NCCc3ccc(OC)c(OC)c3)nc3ccccc3n12	-8.6%
CC(C)C[C@@H](N)C(=O)O	-3.8%[10 µM]
NC(=O)C1CCN(c2nc(-c3ccc(F)cc3)cs2)CC1	?
CCN(CC)CCCNC(=O)c1ccc2c(Cl)c3c(nc2c1)CCCC3	26.7%
COc1ccccc1C(C(=O)O)N1CCC(OCc2cccnc2)CC1 (centres undefined)	i
CCOC(=O)C1=C(C)NC2=C(C(=O)CC(C)(C)C2)C1c1ccc(-c2ccccc2)cc1 (centres undefined)	19.4%
CCS(=O)(=O)N1CCC2(CCC2OC)CC1 (centres undefined)	i
C=C1CC[C@H](O)CC1=C/C=C1\CCC[C@]2(C)[C@@H]([C@H](C)CCCC(C)(C)O)CC[C@@H]12	-21.5%
O=C(Nc1ccc2ccccc2c1)Nc1nnc(-c2ccc(O)cc2)s1	?
CCCCC1=NC2(CCCC2)C(=O)N1Cc1ccc(-c2ccccc2-c2nn[nH]n2)cc1	-2.2%&-3.8%

Reprinted from the part before: four entries, then new ones.
molecule	nsP2pro inh
CCS(=O)(=O)N1CCC2(CCC2OC)CC1 (centres undefined)	i
C=C1CC[C@H](O)CC1=C/C=C1\CCC[C@]2(C)[C@@H]([C@H](C)CCCC(C)(C)O)CC[C@@H]12	-21.5%
O=C(Nc1ccc2ccccc2c1)Nc1nnc(-c2ccc(O)cc2)s1	?
CCCCC1=NC2(CCCC2)C(=O)N1Cc1ccc(-c2ccccc2-c2nn[nH]n2)cc1	-2.2%&-3.8%
O=S(=O)(c1cc(Br)c(Br)s1)N1CCN(c2ccccc2)CC1	-5.6%
Cc1ccccc1CN1c2ccccc2-c2nc(SCC(=O)NCc3ccccc3)ncc2S1(=O)=O	-16.7%
CN1CCNC(=O)C1CC(=O)O (centres undefined)	-1.7%
N#Cc1ccccc1CNc1nc2ncc(Br)cc2[nH]1	0.1%
CC#C[C@@H](CC(=O)O)c1ccc(OCc2ccc(CN3CCC4(C=Cc5ccccc54)CC3)s2)cc1	89.3%[activator]
Cc1cc(NS(=O)(=O)c2ccc3oc(=O)c4ncn(C)c4c3c2)ccc1Br	?
COc1cccc(C2c3c(ncn(-c4ccc(Br)cc4)c3=N)Oc3ccc4ccccc4c32)c1 (centres undefined)	0.7%
CN1C(=O)CC[C@]2(C(=O)NCc3cc(F)cc(F)c3)CCCC[C@@H]12	2.7%
CSc1ccc(C2c3c(oc4ccc(F)cc4c3=O)C(=O)N2c2ccc(C)cn2)cc1 (centres undefined)	-12.7%
O=C(Nc1ccc(-c2nc3ccccc3[nH]2)cc1)c1ccc(-c2ccccc2)cc1	i
Nc1nc(O)c(C2=C3C(=Nc4ccccc43)C(=O)NCC2)[nH]1	?
CC(C)N(C(=O)Cn1cc(SCC(=O)Nc2ccccc2C(F)(F)F)c2ccccc21)C(C)C	-22.3%
Cc1cccc(NS(=O)(=O)c2ccc3c(c2)CCC(=O)N3)c1	0.1%
Cc1ccc(NC(=O)c2cnc3sc(N4CCOCC4)nn3c2=O)cc1N(C)C	-20.9%
C[C@@H]1O[C@@H](O[C@H]2[C@H](OC(=O)[C@]34CCC(C)(C)C[C@H]3C3=CCC5[C@@]6(C)C[C@H](O)[C@H](O[C@@H]7O[C@H](CO)[C@@H](O)[C@H](O)[C@H]7O)[C@@](C)(CO)C6[C@H](O)C[C@@]5(C)[C@]3(C)C[C@H]4O)OC[C@H](O)[C@@H]2O)[C@H](O)[C@H](O)[C@H]1O[C@@H]1OC[C@@H](O)[C@H](O[C@H]2OC[C@](O)(CO)[C@H]2O)[C@H]1O (some centres undefined)	?
COCCn1c(C)cnc1CCNS(=O)(=O)c1cc(OC)ccc1OC	1.1%
CC(C)c1nn2c(=O)cc(COC(=O)Cc3ccccc3)nc2s1	-16.9%
Cn1nc(C2CCN(C(=O)c3ccccn3)CC2)c2c1CCOC2	-11.2%
CCOC(=O)N1CCN(CCC(=O)Nc2cccc(F)c2)CC1	-14.6%
CCOc1ccc(CN2CCc3nc(N4CCN(c5ccccn5)CC4)ncc3C2)cc1OC	?
C[N+]1(CC2CC2)CC[C@]23c4c5ccc(O)c4O[C@H]2C(=O)CC[C@@]3(O)[C@H]1C5 (some centres undefined)	-7.1%&-5.4%
O=C(NCCc1ccc2c(c1)OCO2)c1cc2sccc2[nH]1	-3.1%
CCC1(O)CCC12CCN(C(=O)C1CC1)CC2 (centres undefined)	-4.7%
COc1ccc(OCC(=O)Nc2nnc(S(=O)(=O)N3CCCCCC3)s2)cc1	-7.8%
Cc1ccccc1NC(=O)N1CCc2c(sc3c2CCCC3)C1c1ccccc1 (centres undefined)	-18.4%
Cc1nc(C(C)N(C)c2ncnc3ccc(-c4ccc5c(c4)OCO5)cc23)cs1 (centres undefined)	i
O=S(=O)(NCCc1csc2nc(-c3ccc(Cl)cc3)nn12)c1ccc(Oc2ccccc2)cc1	-1.4%
Fc1ccc(-n2ncc3c(Nc4ccc(Oc5ccccc5)cc4)ncnc32)cc1	-12.6%
O=C1Nc2ccccc2CC12CCCN2Cc1ccccc1 (centres undefined)	-3.2%[39.2 µM]
COc1ccc(NC(=O)CNC(=O)Cn2ccc3ccccc3c2=O)c(OC)c1	-16.1%
CC1C2=CC(=O)OC2(O)CC2C1C(O)CC1C(C)(CO)CCCC21C (centres undefined)	-9.9%
NCCCC[C@H](NC(=O)[C@@H]1CCCN1C(=O)[C@@H]1CSSC[C@H](NC(=O)CNC(=O)CNC(=O)CN)C(=O)N[C@@H](Cc2ccc(O)cc2)C(=O)N[C@@H](Cc2ccccc2)C(=O)N[C@@H](CCC(N)=O)C(=O)N[C@@H](CC(N)=O)C(=O)N1)C(=O)NCC(N)=O	114.2%[activator]
CNc1nccnc1-c1cccc(CN2CCOCC2)c1	i
COc1ccc(C[C@H](C(=O)O)N2C(=O)c3ccc(C(=O)O)cc3C2=O)cc1	-23.7%
CCc1ccc(NS(=O)(=O)c2ccc3[nH]cc(C(=O)NCCc4cccc(C)c4)c(=O)c3c2)cc1	?
Cc1cccc(NC(=O)CSc2cc(C)c3ccccc3n2)c1	-16.2%
Cc1cc2nc3n(c(=O)c2n1CC(=O)NC1CCCCC1)CCCCC3	i
COC(=O)c1ccc(O)c2ncccc12	i
Cc1ccc(-n2nc(CO)c(C(=O)NC(C)CCCc3ccccc3)n2)cc1C (centres undefined)	-15.7%
CCCn1cc(-c2ccnc(NCc3c(F)ccc(C)c3F)n2)c(C)n1	i
NC(=O)c1ccc(-c2noc(-c3ccccc3F)n2)cc1	1.9%
Cc1ccc(-n2nc3c(=O)n(CC(=O)Nc4ccccc4F)nc(C)c3c2C)c(C)c1	-13.3%
O=C1NCCOCCCN(S(=O)(=O)c2cccs2)[C@H]2CCCC[C@@H]12	-0.8%
CC(=O)N1CCCc2ccc(NC(=O)c3ccc(OC(C)C)cc3)cc21	-10.4%
CCOC(=O)Nc1ccc(NCc2c(C)cc(C)cc2C)cc1N	?
CCc1ccccc1NC(=O)CCOc1ccccc1	-5.1%
CC(C)CN1CCN(C(=O)COC(=O)c2ccc(S(C)(=O)=O)c([N+](=O)[O-])c2)CC1	?
Cc1ccc2nc(CN3CCN(C(=O)Nc4ccc(C)c(F)c4)CC3)oc2c1	-4.1%
N#CCNC(=O)c1ccc(-c2ccnc(Nc3ccc(N4CCOCC4)cc3)n2)cc1	0.7%
CN1CC(=O)N(c2cccnc2)Cc2c1ncnc2N1CCN(c2ncccn2)CC1	i
Cc1ccc(-c2nnc(Nc3ccc(OCC(N)=O)cc3)c3ccccc23)cc1S(=O)(=O)NCC1CCCO1 (centres undefined)	19.9%
COCc1ccc2c(c1)c(OC(C)(C)C(=O)N1CCN(C)CC1)nn2CCC(C)C	i
CC(=O)c1cccc(NC(=O)CN2C(=O)c3cccnc3Sc3ccccc32)c1	-12.3%
COc1ccc(CN2CCN(C3CCN(c4ccccc4)CC3)CC2CCO)cc1C (centres undefined)	-6.2%
C=CC1(C)CC(OC(=O)C(=C)C(O)COC(C)=O)C(C(=C)C(=O)OC)C(O)C1C(=C)CO (centres undefined)	?
CCOC(=O)N1CCc2c(sc(NCc3cccs3)c2C(=O)Nc2cc(OC)ccc2OC)C1	11.2µM*
COc1ccc(-c2onc(C)c2C(=O)NCCCCc2ccccc2)cc1	-12.6%
Cc1ccc(S(=O)(=O)NCCc2csc(-c3ccc(Cl)cc3)n2)cc1	-14.5%
COc1ccc(OC)c(CCNC(=O)CCCc2nnc3n(C)c(=O)c4sccc4n23)c1	-20.5%
Cc1ccc(-c2ncc(Cl)cc2-c2ccc(S(C)(=O)=O)cc2)cn1	4.9%

Continued.
molecule	nsP2pro inh
Cc1ccc(C(=O)N2c3ccc(C)cc3C(C)(c3ccccc3)CC2(C)C)cc1 (centres undefined)	-10.4%
C=C1C[C@]23C[C@H]1CC[C@H]2[C@@]12C=C[C@H](O)[C@@](C)(C(=O)O1)[C@H]2[C@@H]3C(=O)O	-12.0%
O=S(=O)(NCC(c1ccco1)N1CCOCC1)c1ccc(Br)cc1 (centres undefined)	-20.4%
Cc1noc(Cn2c(=O)c3ccccc3n(CC(=O)Nc3ccc(C(C)C)cc3)c2=O)n1	-8.7%
O=C(O)c1ccc2c(c1)C(=O)N([C@H](Cc1ccc(Cl)cc1)C(=O)O)C2=O	?
CC(C)(C)c1ccc(-c2nnc(-c3ccccc3NC(=O)c3ccc(F)cc3F)o2)cc1	-12.0%
Cc1ccc(OCCn2c(CCNC(=O)C3CCCC3)nc3ccccc32)cc1	-14.0%
Cc1cc2nc3c(=O)[nH]c(=O)nc-3n(C[C@@H](O)[C@@H](O)[C@@H](O)COP(=O)(O)O)c2cc1C	-21.7%[5.1 µM]
CCOC(=O)c1ccc(NC(=O)c2ncn(-c3ccccc3)n2)cc1	-2.8%
O=C(COc1ccccc1Cl)Nc1ccc2nc(SCC(=O)N3CCOCC3)sc2c1	-15.2%
Fc1ccc(-c2cc(C3CCNCC3)[nH]n2)cc1	i
C[N+](C)(C)CCOC(=O)CCC(=O)OCC[N+](C)(C)C	-1.1%
CCc1noc(-c2nc(Cc3cccc(F)c3)no2)n1	-1.1%
Cc1cc(C)c(OP(=O)(OCc2c(-c3ccccc3)no[n+]2[O-])Oc2c(C)cc(C)cc2C)c(C)c1	-6.2%
COc1ccc(CNC(=O)CN(c2ccccc2OC)S(=O)(=O)c2ccc(C)cc2)cc1	0.7%
CC(=O)Nc1ccc(S(=O)(=O)NCC2CCC(C(=O)NCc3ccccc3)CC2)cc1 (centres undefined)	-15.4%
CCOC(=O)Cc1ccc(-c2ccccc2)cc1	8.7%[39.2 µM]
COc1ccc(N(C)C(=O)c2nn(-c3ccc(C)cc3)c(=O)n(C)c2=O)c(OC)c1	-18.5%
O=C(Nc1cccc(C(F)(F)F)c1)Nc1nnc(-c2ccncc2)s1	i
O=C(NCc1ccccc1)C1CCN(c2cnc3nccnc3c2)CC1	2.8%
CCCOC(c1cc2nccc(C(=O)O)c2[nH]1)c1ccccc1Cl (centres undefined)	?
COc1cccc(N2C(=O)NC(=NC3CCCCC3)C23CCCN(CC2CCCCC2)C3)c1 (centres undefined)	-18.3%
Cc1nc(NCCO)c2nc(-c3ccccc3)n(CCCN(C)C)c2n1	4.2%
CNC(=O)c1cc2c(n(-c3ccc(C)cc3)c1=O)CC(C)(C)CC2=O	-12.5%
CC(=O)OCC(=O)[C@@]1(O)[C@H](OC(C)=O)C[C@H]2[C@@H]3CCC4=CC(=O)C=C[C@]4(C)[C@@]3(F)[C@@H](O)C[C@@]21C	-7.1%
O=S(=O)(c1cccnc1)N1CCC(N(Cc2cccnc2)C2CCOCC2)CC1	i
C=C1CC[C@@]2(OC1)O[C@H]1CC3[C@@H]4CC=C5C[C@@H](O)C[C@@H](O[C@@H]6OC[C@H](O)[C@H](O)[C@H]6O[C@@H]6O[C@@H](C)[C@H](O)[C@@H](O)[C@H]6O)[C@]5(C)C4CC[C@]3(C)[C@H]1[C@@H]2C (some centres undefined)	-10.0%[10 µM]
C/C=C/C=C/c1cc2c(C=O)c(O)c(CC=C(C)C)cc2o1	-29.9%

A portion of the library, so the mix of outcomes need not match the whole.
